Screening results: PubChem, ICCB-Longwood Screening Facility, Harvard Medical School
GIV Gai3 FP: blocks GIV peptide binding to rat Galpha-i3. P08753. Galpha-i3/FITC-GIV peptide fluorescence polarization, 90 min; active compounds read low; scaled: aluminum fluoride 0%, vehicle 100%. percent of control (FP), % (no concentration beside the values). 210,000 tested, 0.42% active. AID 1224905;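 active means replicate mean at 85% of control or lower, very high polarization wells dropped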;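 further: wells of about 15 µL received 100 nL stock; the first replicate is given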
Target sequence (P08753 whole entry, looked up): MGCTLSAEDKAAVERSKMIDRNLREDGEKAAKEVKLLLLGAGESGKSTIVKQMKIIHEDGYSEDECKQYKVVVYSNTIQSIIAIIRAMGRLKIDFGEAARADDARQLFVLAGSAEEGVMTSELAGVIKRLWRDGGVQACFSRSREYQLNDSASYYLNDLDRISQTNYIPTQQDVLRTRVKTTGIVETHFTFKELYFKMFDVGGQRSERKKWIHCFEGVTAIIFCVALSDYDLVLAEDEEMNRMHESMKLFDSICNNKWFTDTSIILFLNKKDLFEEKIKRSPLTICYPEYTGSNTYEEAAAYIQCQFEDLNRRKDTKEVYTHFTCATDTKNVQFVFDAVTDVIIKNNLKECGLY
Starred values were filed as active, the others as inactive. An excerpt; the hit share may differ from the screen's.

Molecule | GIV Gai3 FP
Cc1ccc(N(C)S(=O)(=O)c2cc(-c3nc(C)cs3)sc2C)cc1 | 107.4
Nc1c(C(=O)c2ccc(Oc3ccccc3)cc2)oc2ccccc12 | 105.7
COc1cc(C2C(C#N)=C(N)N(c3ccccc3)C3=C2C(=O)CC(C)(C)C3)cc(OC)c1OC (configuration not stated) | 108.3
CC1CC(C)CN(S(=O)(=O)N2CCCC(C(=O)NC3CCCCCCC3)C2)C1 (configuration not stated) | 106.4
CCOC(CNC(=O)c1ccc2c(c1)ncn2-c1cc(OC)c(OC)c(OC)c1)OCC | 125.1
c1ccc(-c2cnc(-c3ccccc3)nn2)cc1 | 105.6
CCOc1cc(C2C(C#N)=C(N)Oc3n[nH]c(-c4cccs4)c32)cc(Br)c1O (configuration not stated) | 110.4
Cc1cn([C@H]2C[C@@H](O)[C@@H](CO)O2)c(=O)n(C)c1=O | 112.0
O=C1c2ccccc2-c2onc3ccc(Sc4ccccc4)c1c23 | 116.2
COc1ccccc1NC(=O)CSc1nnc(NC(=O)CSc2nnc3n(N)cnn23)s1 | 106.1
CCS(=O)(=O)c1ccc(C(=O)Nc2nc(-c3ccncc3)cs2)cc1 | 104.6
O=C(C1CCN(c2ncnc3c2oc2ccccc23)CC1)N1CCc2ccccc2C1 | 110.7
Cc1ccc(-c2n[nH]c3c2C(c2ccc([N+](=O)[O-])cc2)N(c2ccc(F)cc2)C3=O)cc1 (configuration not stated) | 106.2
Cc1ccc(C23CC4CC(CC(C(=O)N5CCCCC5)(C4)C2)C3)cc1 | 110.3
COc1ccc(CCNC(=O)CSc2nc3ccccc3c(=O)n2CCCC(=O)NCc2ccco2)cc1OC | 104.3
CCCS(=O)(=O)N1CCCC(C(=O)NCCCN2CCC(Cc3ccccc3)CC2)C1 (configuration not stated) | 107.3
O=c1ccc(-c2nc(-c3ccc(Br)cc3)no2)cn1Cc1cc(=O)n2ccccc2n1 | 97.3
Clc1ccc(C2C=C(c3ccccc3)Nc3nc4ccccc4n32)cc1 (configuration not stated) | 112.2
CCOC(=O)CNC(=O)N1CCCC1c1c(C)noc1C (configuration not stated) | 106.6
COc1ccc(CCNC(=O)CSc2nc3ccccc3c(=O)n2C2CCCC2)cc1OC | 106.4
O=C1S/C(=C/c2ccccc2O)C(=O)N1CNc1cccc(Br)c1 | 115.3
COc1ccc2c(c1)-c1c(ssc1=S)C(C)(C)N2C(=O)c1cc(OC)c(OC)c(OC)c1 | 109.4
CCN(c1ccccc1)S(=O)(=O)c1ccc(C(=O)Nc2sc3c(c2C(N)=O)CCC3)cc1 | 103.6
Brc1ccc(Nc2nc(NCc3ccco3)c3ccccc3n2)cc1 | 101.8
CC(C)N1CCC(CC(=O)N2CCc3c(c(-c4nc(C5CC5)no4)nn3C)C2)CC1 | 109.0
O=C(O)c1ccc2c(=O)n3c4ccccc4nc3c3ccc(C(=O)O)c1c23 | 112.6
Cc1ccc(-c2ccc(C(=O)NC3CCCC3)cn2)cc1 | 107.8
Cc1cccc(-n2c(=S)[nH]c3c(c2=O)C2(CCCCC2)Cc2ccccc2-3)c1 | 115.0
COc1cc(C2C(C(=O)OCC3CCCO3)=C(C)NC3=C2C(=O)CCC3)cc(Br)c1O (configuration not stated) | 95.9
COc1cc(C2CC(=O)Nc3c2cc(Br)c2ccccc32)cc(OC)c1OC (configuration not stated) | 110.0

7 compounds drawn at random from those above:
Molecule | GIV Gai3 FP
Cc1cccc(-n2c(=S)[nH]c3c(c2=O)C2(CCCCC2)Cc2ccccc2-3)c1 | 115.0
COc1ccc2c(c1)-c1c(ssc1=S)C(C)(C)N2C(=O)c1cc(OC)c(OC)c(OC)c1 | 109.4
COc1cc(C2CC(=O)Nc3c2cc(Br)c2ccccc32)cc(OC)c1OC (configuration not stated) | 110.0
Cc1ccc(-c2ccc(C(=O)NC3CCCC3)cn2)cc1 | 107.8
Brc1ccc(Nc2nc(NCc3ccco3)c3ccccc3n2)cc1 | 101.8
COc1cc(C2C(C(=O)OCC3CCCO3)=C(C)NC3=C2C(=O)CCC3)cc(Br)c1O (configuration not stated) | 95.9
O=C(O)c1ccc2c(=O)n3c4ccccc4nc3c3ccc(C(=O)O)c1c23 | 112.6

Next part
Molecule | GIV Gai3 FP
O=C1C(c2ccccc2)=C(O)c2ccccc21 | 109.3
Cc1c(C(=O)O)sc2ncnc(NC3CC3)c12 | 200.1
O=C1NCc2ccc(S(=O)(=O)NCc3ccc(F)cc3)cc21 | 101.7
Cc1nc2nc(-c3ccccc3)c(-c3ccccc3)n2nc1C | 116.4
CC(C)(C)NC(=O)CSc1nnc2c3ccccc3nc(-c3ccccc3)n12 | 99.6
O=S(=O)(Cc1ccccc1)N(Cc1ccco1)CC1CCCO1 (configuration not stated) | 100.9
Cc1ccc(N2C(=O)C3C(C2=O)N2CCCN2C3c2ccccc2)cc1 (configuration not stated) | 112.5
CCN(CC)c1ccc2cc(-c3nnc(Nc4ccc(C#N)cc4)s3)c(=O)oc2c1 | 140.8
CCN1CCCC1CNC(=O)CN1C(=O)CN(C(=O)Nc2ccc(F)cc2)c2ccccc21 (configuration not stated) | 104.1
O=C1Nc2cc(Cl)ccc2Oc2ccc(S(=O)(=O)N3CCOCC3)cc21 | 103.8
COc1ccc(C2Nc3ccc4ccccc4c3C3=C2C(=O)CC(C)(C)C3)cc1OC (configuration not stated) | 108.0
COc1ccc(-c2[nH]nc3c2C(c2ccccc2OC(=O)N2CCOCC2)C(C#N)=C(N)O3)cc1 (configuration not stated) | 104.4
O=C(O)C1c2ccccc2CCN1S(=O)(=O)c1cccc2nsnc12 (configuration not stated) | 105.2
CCS(=O)(=O)Nc1ccc(-c2noc(-c3ccc4c(c3)OCO4)n2)cc1 | 121.4
COC(=O)C1(O)C(C(C)=O)=C(O)C(=O)N1c1ccc(Br)cc1 (configuration not stated) | 100.7
Cc1csc(-c2cc(S(=O)(=O)N3CCCCC3)c(C)n2C)n1 | 102.3
CSc1ccc(N2C(C)=NS(=O)(=O)c3cccnc32)cc1 | 106.0
COc1ccc(N2CCN(c3nc(Nc4ccc(F)cc4)nc(N4CCOCC4)n3)CC2)cc1 | 106.4
COc1ccc(OC)c(C2C(N3C(=O)c4c(Cl)c(Cl)c(Cl)c(Cl)c4C3=O)C(=O)N2c2ccc(F)cc2)c1 (configuration not stated) | 119.9
O=S(=O)(Nc1cccn2cnnc12)c1ccc2c(c1)CCC2 | 96.5

Next entries
SMILES | GIV Gai3 FP
COc1ccc2ccccc2c1/C=C1\SC(=Nc2ccccc2)N(N(C)C)C1=O | 107.9
CC(C)(C)Nc1c(-c2ccccc2)nc2sc(N3CCN(C(=O)c4cc5ccccc5[nH]4)CC3)nn12 | 108.1
Cc1cc(NC(=O)CCc2nc(CSc3nc4ccccc4o3)no2)ccc1Br | 108.1
CCOC(=O)C1=CC2(SC=C(C(=O)OCC)S2)C2=C(S1)C(C)(C)N(C(C)=O)c1ccc(OCC)cc12 (configuration not stated) | 111.2
Cc1[nH]c(C)c(S(=O)(=O)N2CCC(C)CC2)c1-c1nnc(C2CCC2)o1 | 109.1
CCn1cc(CN2CCCC(c3nc(-c4ccc(F)cc4)n[nH]3)C2)cn1 (configuration not stated) | 105.5
O=C(Oc1ccc(-c2noc(-c3ccc(OC(=O)c4cccnc4)cc3)n2)cc1)c1cccnc1 | 110.8
Cc1cc2c3c(ccc(N)c3n1)C(=O)c1ccccc1-2 | -32.2*
CN=C1SC(CC(=O)Nc2ccccc2OC)C(=O)N1C (configuration not stated) | 99.7
Cc1ccc(-c2csc(Cc3nc(-c4ccc(C)cc4)no3)n2)cc1 | 114.9
CCOC(=O)C1=C(O)/C(=C\c2ccc(N(C)C)cc2)SC1=Nc1ccc(Cl)cc1 | 115.3
Cc1cn(C)c(CC(=O)Nc2cccnc2)c1C(=O)O | 103.4
O=[N+]([O-])c1ccc2c(c1)C1OC(c3ccccc3)(c3ccccc3)c3ccccc3N1CO2 (configuration not stated) | 106.0
COc1ccc(-c2cn3nc(C)c(C)nc3n2)cc1 | 106.1
COc1ccc(-c2cc(C(F)(F)F)n3ncc(C(=O)NCc4ccc5c(c4)OCO5)c3n2)cc1OC | 101.2
CN(CCc1noc(-c2ccc(C(=O)NCC3CCCO3)cc2)n1)C(=O)Nc1ccc(Cl)cc1 (configuration not stated) | 106.9
Cc1noc(-c2ccc(S(=O)(=O)NC3CC3)s2)c1C | 99.8
O=C(c1cn(-c2cccc(Cl)c2)nn1)N1CCCCC1 | 101.9
COc1ccc(-c2csc(NC(=O)CS(=O)(=O)c3ccc(C)cc3)n2)c(OC)c1 | 105.7
Cc1ccc(-c2cn3nc(-c4ccccc4)c(-c4ccccc4)nc3n2)cc1 | 138.2
O=S(=O)(Nc1ccc2nnc(-c3ccccc3)n2n1)c1ccc(Cl)cc1 | 101.4
Cc1ccc(S(=O)(=O)N2CCC(c3noc(-c4ccccc4)n3)CC2)cc1 | 96.8
Cc1nc(S(=O)(=O)c2ccccc2)c(NCc2ccccc2)o1 | 110.7
CCOC(=O)c1cccc(NC(=O)Cn2cc(-c3nc(-c4ccc(C)cc4)no3)ccc2=O)c1 | 103.8

2 of the compounds above, with the structure last:
GIV Gai3 FP | smiles
138.2 | Cc1ccc(-c2cn3nc(-c4ccccc4)c(-c4ccccc4)nc3n2)cc1
101.4 | O=S(=O)(Nc1ccc2nnc(-c3ccccc3)n2n1)c1ccc(Cl)cc1

New compounds follow:
SMILES | GIV Gai3 FP
COc1cc(C2C(C(=O)N3CCOCC3)=C(C)NC3=C2C(=O)CC(C)(C)C3)cc(Br)c1O (configuration not stated) | 97.1
CC1=CCC2C(=O)N(c3ccc(C(=O)OCC(=O)c4ccc(Cl)cc4)cc3)C(=O)C2C1 (configuration not stated) | 105.6
Cc1sc2c(c1C)c(=O)n(-c1ccccc1)c1nnc(C)n21 | 110.5
Cc1ccc(NC(=O)Cn2cnc3sc(C(=O)N4CCN(c5ccccc5F)CC4)c(C)c3c2=O)cc1Cl | 102.8
COc1ccc(NC(=O)Nc2nnc(SCC(=O)NC3CCCCC3)s2)cc1 | 98.1
N#CC1=C(N)C(C#N)(C#N)C(c2ccc(Cl)c(Cl)c2)C2CCCC=C12 (configuration not stated) | 152.2
COC(=O)Nc1ccc2c(c1)N(C(=O)CCN1CCCCC1)c1ccccc1CC2 | 109.1
CC1(C)CC(=O)c2c(oc3c(Br)cc(NS(=O)(=O)c4ccccc4)cc23)C1 | 109.9
O=S(=O)(c1ccc(-c2cnc(C3CC3)o2)s1)N1CCN(c2ccccc2)CC1 | 101.6
COc1ccc(CCNC(=O)c2cnn3c(C)c(Cc4ccccc4Cl)c(C)nc23)cc1OC | 102.6
Cn1cc(C(=O)NC2CCCC2)c(S(=O)(=O)N2CCSCC2)n1 | 99.6
CCOc1ccccc1NC(=O)Nc1ccc(-c2nc3ccccc3s2)c(Cl)c1 | 98.4
O=S(=O)(Nc1ccc2c(c1)OCO2)c1ccc2nncn2c1 | 103.2
O=C(CCS(=O)(=O)c1ccccc1)Nc1nc(-c2ccncc2)cs1 | 107.0
c1ccc(C2Nc3ccccc3C(c3ccccc3)(c3ccccc3)O2)cc1 (configuration not stated) | 105.8
Cc1ccc(N2C(=O)/C(=C/c3ccc([N+](=O)[O-])cc3)C=C2c2ccccc2)cc1C | 125.9
COc1ccc2cc(C(=O)Nc3ccccc3)c(=Nc3ccc(C(=O)O)cc3)oc2c1 | 110.8
O=C(NCCC1=CCCCC1)c1ccc(N2CC3CC(C2)c2cccc(=O)n2C3)c(NC(=O)c2c(F)cccc2F)c1 (configuration not stated) | 102.9
O=C(CCn1nnc2cc(-c3noc(C4CCCC4)n3)ccc21)N1CCOCC1 | 103.4
Cc1cc2c(cc1C)C(Nc1ccc(Cl)cc1)=NC(C)(C)C2 | 105.2
COc1cc(OC)c(Nc2nc(C)nc3sc(C)c(C)c23)cc1Cl | 107.3
COc1ccc(OC(C)C(=O)Nc2ccc(N(C)C)cc2)cc1 (configuration not stated) | 100.4
Cn1c(SCc2ccc(F)cc2)nc2c(=O)[nH]cnc21 | 103.1
CCOc1ccc(C2C(C(=O)OC)=CN(Cc3ccc(OC)c(OC)c3)C=C2C(=O)OC)cc1OC | 97.9
CCCn1c2ccccc2c2nnc(SC(C)C)nc21 | 103.1
Nc1nc(Cn2c(-c3nonc3N)nc3ccccc32)nc(N2CCCCC2)n1 | 111.9
COc1ccc(Cl)cc1NC(=O)Cn1nc(C(F)(F)F)c(Br)c1C | 106.4
O=C(Nc1ccc(Br)cc1)/C(=C\c1ccc2c(c1)OCO2)NC(=O)c1ccccc1Br | 122.4
Cc1cccc(CN2CCCC2c2c(C)noc2C)c1 (configuration not stated) | 98.8
C=CCN(c1ccccc1)S(=O)(=O)c1ccc2[nH]cc(C(=O)N(Cc3ccco3)CC3CCCO3)c(=O)c2c1 (configuration not stated) | 103.4
CC(C)C(=O)Nc1ccc(SCc2nnc(-c3ccccc3)o2)cc1 | 102.6
O=S(=O)(c1cccc(Cl)c1)N1CCC(N2CCOCC2)CC1 | 104.0
Cc1ccc(S(=O)(=O)N(C)CC2(C)CCOCC2)cc1F | 96.7
COc1ccc(CCNC(=O)c2sc3ncn(CC(=O)Nc4ccc(C)c(Cl)c4)c(=O)c3c2C)cc1OC | 115.4
CCOc1ccc2c(c1)C(C)CC(C)(C)N2C(=O)NC1CCCCC1 (configuration not stated) | 106.8
COc1ccc(C2(c3ccccc3F)C=Cc3c(ccc4cc(OC)ccc34)O2)cc1 (configuration not stated) | 111.4
Cc1cccc(-c2nc3ccc(C(=O)NC4CC4)cc3nc2-c2cccc(C)c2)c1 | 106.1
CCOC(=O)CNCc1c(C(=O)OCC)c2cc(OC)c(Br)cc2n1C | 104.0
CC1CCC(NC(=O)c2ccc3c(=O)n(Cc4ccc5c(c4)OCO5)c(=S)[nH]c3c2)CC1 (configuration not stated) | 113.0
COc1cccc(-c2nnc(SCc3nc4ccccc4[nH]3)n2-c2ccccc2)c1 | 109.3
CC(C)c1cc(C2CCCN2S(=O)(=O)c2ccc(Cl)cc2)no1 (configuration not stated) | 93.9
COc1ccc(-n2ncc3c(N4CCN(c5ccc(F)cc5)CC4)ncnc32)cc1 | 115.9
Cc1nc(N2CCOCC2)nc(OC2C(=O)c3ccccc3C2=O)c1[N+](=O)[O-] | 101.0
CCOC(=O)N1CCN(C(=O)c2ccc3c(=O)n(Cc4ccc5c(c4)OCO5)c(=S)[nH]c3c2)CC1 | 108.2
Cc1cc(C)n(-c2cc(Nc3ccc(Br)cc3)ncn2)n1 | 107.2
